# Assay outcomes from PubChem BioAssay.
# Autofluor counter = compound fluorescence in toxin protease inhibitor counterscreen; 3.1% of 360,000 active; AID 624483; compound autofluorescence counterscreen, microsphere flow cytometry; hits give high values; fluorescence intensity (test concentration not listed);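 active = at least 3 SD above the mean of all compounds, about 16000 in these data; inconclusive = too few beads counted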;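 note: 100 nL of 1 mM stock went into each well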
# RN4220 kill = kills Staphylococcus aureus RN4220 | S. aureus RN4220 growth, OD600, 16 h | inhibition, % (concentration not given with the values) | 0.33% of 330,000 active | AID 1259311;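 active = z-score of -3 or lower and OD600 up to 0.18 on both plates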;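 note: plate controls were untreated cells for no effect and reference antibiotic for full effect; stock transfer was 100 nL into about 80 µL; one replicate is shown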
# Mtb hypoxia inh = Mtb hypoxia fluorescent reporter inhibition; M. tuberculosis hypoxia-regulated fluorescent reporter, fluorescence; fluorescence inhibition, % (no concentration beside the values); 0.1% of 300,000 active; AID 1159583;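 active = 35 to 45% if threefold the growth effect, above 45% if 1.5-fold the growth effect; inactive = the rest, general growth blockers included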;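 note: wells of about 50 µL received 100 nL stock; 0% = vehicle wells and 100% = reference inhibitor wells; whole bacteria with a GFP reporter of the hypoxia response; strong numbers were not always called active; many hits fall short of the cut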
# ugtP null kill = compounds lethal to S. aureus RN4220 ugtP deletion mutant. OD600 growth, 16 h; some inactives read as strong as hits. growth inhibition, % (test concentration not listed). 0.54% of 330,000 active;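 active = z-score under -3 and OD600 up to 0.15 on both plates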;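 note: plate controls were untreated wells for no effect and antibiotic for full effect; wells of about 80 µL received 100 nL stock; the first replicate is given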
# PrP 5UTR inh = suppresses PrP 5' UTR mRNA reporter expression; cell-based PrP 5' UTR mRNA reporter, plate reader; inhibition, % (test concentration not listed); 0.35% of 340,000 active; AID 488862;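 active = every replicate at 50% or more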;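 note: 0 = median of the neutral control wells; tested in H4 reporter cells; numbers are from one replicate; inactives centre near -14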
# BJeLR viability = BJeLR cell viability loss; BJeLR (HRASV12) viability, CellTiter-Glo ATP luminescence, 48 h; reference of the scale not given here; inhibition, % (concentration not given with the values); 0.17% of 300,000 active; AID 1554;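 active = replicate mean above 50%; inconclusive = above 50% but judged a plate artefact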;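 note: 50 nL library stock added to about 25 µL; numbers are from one replicate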
# Mtb hypoxia inh growth = recorded beside Mtb hypoxia inh, whose call it bears; growth inhibition, %; measured here: M. tuberculosis growth (absorbance);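 0% = vehicle and 100% = reference antibiotic; read after six days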
# Active calls of the source: *; ? = inconclusive; . = not tested or not shown.
SMILES,Autofluor counter,RN4220 kill,Mtb hypoxia inh,Mtb hypoxia inh growth,ugtP null kill,PrP 5UTR inh,BJeLR viability
CN(CCOc1ccc(Cl)cc1)C(=O)c1ccccc1SCC(=O)N1CCCC1,.,3.7,3.9,1.4,1.3,-28.3,.
COc1ccc(-c2coc3cc(OC4OC(CO)C(O)C(O)C4O)cc(O)c3c2=O)cc1 (centres undefined),4103,3.3,0.3,3.4,2.7,-88.7,.
COc1ccc(NC(=O)Cn2c(CCC(=O)O)ccc2-c2ccc(C)cc2)cc1,4451,6.8,19.5,-2.4,8.8,-12.1,3.2
O=C(NC1CCCC1)c1cc(COc2ccc3ncccc3c2)on1,.,3.8,3.2,9.9,6.8,-8.6,8.5
COc1ccc(CCNC(=O)CCC(=O)N2CCN(S(=O)(=O)c3ccc(Cl)cc3)CC2)cc1OC,4157,3.2,.,.,0.4,7.9,7.9
CCN1/C(=C\C=C\C2=[N+](CC)c3ccccc3C2(C)C)C(C)(C)c2ccccc21,3370,100.2*,-82.1,-8.1,100.4*,63.2*,88.1*
CN=c1scc(-c2ccc(F)cc2)n1N=Cc1ccc(O)c(O)c1,.,6.4,2.9,-4.3,0.6,.,.
COc1ccc(Cc2nc(-c3ccccn3)no2)cc1OC,2172,5.1,-5.1,-0.1,1.7,-6.6,-1.3
Cc1nc(Cl)c(C(=O)NC(=O)Nc2cccc(C(F)(F)F)c2)c(C)c1[N+](=O)[O-],2984,4.1,3.7,7.2,-6.9,11.4,-0.8
O=C1N/C(=C/c2ccc(Br)s2)C(=O)N1c1ccccc1,1902,.,.,.,.,-83.8,0.9
O=C(O)c1cc2nccc(-c3ccc(F)cc3)n2n1,4035,5.1,-2.1,0.5,14.3,-6.3,-3.4
c1ccc(-c2cc(NCCN3CCCCC3)c3ccccc3n2)cc1,3698,1.7,7.3,-0.6,-3.9,-19.2,5.6
O=C1N=c2ccc(Br)cc2=C1c1sc(=S)n(NS(=O)(=O)c2ccccc2)c1O,2545,35.6,4.9,3.9,10.4,-16.5,-1.7
O=C1C=C(c2cccc3c2sc2ccccc23)CC(c2ccc(Cl)cc2)C1 (centres undefined),.,-10.0,14.1,12.3,1.0,.,.
CC/C(O)=N\S(=O)(=O)c1ccc(N=NN(C)C)cc1,4058,.,.,.,.,-6.6,-2.4
Cc1cc2n(n1)C(c1ccc(O)cc1)Nc1ccccc1-2 (centres undefined),4515,-1.5,0.0,-8.4,-12.6,-5.0,1.0
O=[N+]([O-])c1ccccc1CCl,4208,3.7,10.6,4.2,4.0,-6.4,.
COc1cc2[nH]c(=O)n(CCCCCC(=O)N3CCN(c4ccccc4)CC3)c(=O)c2cc1OC,19560*,-4.4,-7.2,6.2,-11.6,-5.5,5.3
CC(=O)N1Cc2ccccc2CC1C(=O)OCC(=O)c1c(N)n(C)c(=O)n(C)c1=O (centres undefined),4210,4.1,4.6,-2.0,8.4,-4.4,.
Cc1ccccc1Cn1c(=O)n(Cc2ccco2)c(=O)c2ccccc21,5010,5.6,.,.,25.9,-1.0,4.0

# Another view of 4 compounds above.
# Fields: Autofluor counter, RN4220 kill, Mtb hypoxia inh, Mtb hypoxia inh growth, ugtP null kill, PrP 5UTR inh, BJeLR viability
Cc1ccccc1Cn1c(=O)n(Cc2ccco2)c(=O)c2ccccc21
    5010, 5.6, ., ., 25.9, -1.0, 4.0
O=C1C=C(c2cccc3c2sc2ccccc23)CC(c2ccc(Cl)cc2)C1 (centres undefined)
    ., -10.0, 14.1, 12.3, 1.0, ., .
O=C1N/C(=C/c2ccc(Br)s2)C(=O)N1c1ccccc1
    1902, ., ., ., ., -83.8, 0.9
O=C1N=c2ccc(Br)cc2=C1c1sc(=S)n(NS(=O)(=O)c2ccccc2)c1O
    2545, 35.6, 4.9, 3.9, 10.4, -16.5, -1.7

# Other records:
SMILES,Autofluor counter,RN4220 kill,Mtb hypoxia inh,Mtb hypoxia inh growth,ugtP null kill,PrP 5UTR inh,BJeLR viability
COCCNC(=O)CN(C(=O)CCC(=O)Nc1ccccn1)c1ccc(F)c(Cl)c1,2727,-0.8,.,.,0.5,-0.5,-7.7
c1ccc2c(CN3CCCCCC3)c[nH]c2c1,2031,8.6,-6.8,-20.6,1.3,-8.2,7.5
O=S(=O)(Nc1cccc(S(=O)(=O)N2CCCC2)c1)c1ccc(Cl)cc1,5187,17.3,8.1,-3.6,2.6,9.5,.
O=C(CCN1C(=O)c2ccccc2C1=O)NCCCn1ccnc1,4251,0.5,-5.1,-2.0,-0.6,5.6,5.5
CCOC(=O)C1=C(O)/C(=C/c2ccc(OCC(=O)O)c(OCC)c2)SC1=Nc1ccccc1,4330,0.7,-3.6,10.7,6.9,-31.4,-2.0
CCOC(=O)c1[nH]c(=S)[nH]c1C,3614,0.4,2.2,1.5,-3.5,-19.0,.
COc1cccc(N2C(=NC(=O)CCc3ccccc3)SC3CS(=O)(=O)CC32)c1 (centres undefined),5041,-0.3,5.4,4.3,3.8,-14.9,7.7
O=C(c1ccc2c(c1)OCO2)N1CCN(S(=O)(=O)c2ccccc2)CC1,4911,2.1,8.0,2.4,2.3,0.4,-16.7
COC(=O)[C@@H](NC(=O)Nc1ccc(C(C)=O)cc1)C(C)C,9573,0.8,2.9,-0.8,1.5,-26.9,-1.5
O=[N+]([O-])c1ccc(NN=Cc2ccccc2O)nc1,3804,6.0,.,.,-9.3,-42.9,.
CC(C)c1ccc(NC(=O)N2CCC(c3nc4ccccc4o3)CC2)cc1,7883,3.3,6.7,1.4,0.7,1.1,5.8
CCCCOc1ccc(NC(=O)C2CC=CCC2C(=O)O)cc1 (centres undefined),6846,0.5,-0.2,8.6,-9.5,-13.9,-0.3
O=C(c1ccccc1)N1CCC(=O)N1c1ccccc1,2565,5.5,5.9,0.8,1.1,-29.6,17.7
CCOc1ccccc1N1CCN(C(=O)c2c(CC)noc2C)CC1,?,3.6,11.3,1.0,1.7,-13.7,-3.8
Cc1nn(-c2ccccc2)c(C)c1/C=N/NC(=O)c1ccccc1NS(=O)(=O)c1cccs1,2535,.,.,.,.,-32.5,12.3
COc1ccc(NC(=O)CS(=O)CC(=O)NCC2OCCc3ccccc32)cc1 (centres undefined),4480,3.4,5.5,8.1,14.1,-7.7,13.0
O=C1c2ccccc2C(=O)N1C/C=C/CN1C(=O)c2ccccc2C1=O,.,4.0,4.3,11.8,5.2,.,-4.2
O=C(NC(Cc1ccccc1)C(=O)N1CCC2(CC1)OCCO2)C1CCCCC1 (centres undefined),5807,7.3,9.2,6.7,-4.5,-31.6,0.6
CC(C)C[C@H](NC(=O)c1nc[nH]c1C(=O)N1CCNCC1)C(=O)OC(C)(C)C,2894,.,.,.,.,-1.0,1.5
CCOCCCn1c(=S)[nH]c2cc(C(=O)NCCc3ccc(OC)c(OC)c3)ccc2c1=O,5337,-0.4,-0.2,0.1,1.8,-11.1,-13.8
O=C(/C=C/c1ccc(S(=O)(=O)N2CCOCC2)cc1)NCc1ccccc1F,?,1.1,-3.8,-2.3,0.2,5.8,.
CC12CC(c3ccccc3O1)C(C(=O)N1CCOCC1)C(=O)N2 (centres undefined),6425,2.2,4.9,1.4,11.8,-1.4,3.2
Cc1cc(C)c(C)c(S(=O)(=O)N[C@@H](C)C(=O)OCC(N)=O)c1C,3126,3.8,2.6,3.3,3.5,39.9,7.0
O=P(O)(CN1CCCCCC1)CN1CCCCCC1,.,3.1,1.0,4.2,3.3,.,-4.8
Cc1nc2sc(C(=O)OCC(=O)N3c4ccccc4CC3C)c(C)c2c(=O)[nH]1 (centres undefined),4330,-8.1,-2.0,-10.9,-4.7,-12.9,-2.5
CC(=O)Nc1ccc(NC(=O)CCCSc2nc3ccccc3s2)cc1,4410,-2.8,7.1,0.2,1.6,-24.4,-6.2
Cc1ccc(CN(c2ccc(C(=O)Nc3ccc4c(c3)OCO4)cc2)S(C)(=O)=O)cc1,15731,0.7,2.1,-0.5,9.9,-4.9,-25.3
Cc1[nH]c(C)c(S(=O)(=O)N2CCCCC2C)c1C(=O)N1CCCC1 (centres undefined),5218,3.7,5.3,-0.8,14.6,-7.4,10.0
COc1ccc(C(=O)NCCCn2ccnc2)cc1[N+](=O)[O-],.,1.4,1.8,-0.7,10.4,-5.3,-1.8
O=C(Cc1cccc(NC(=O)C2CCN(C(=O)C3CC3)CC2)c1)Nc1cccc(C(=O)N2CCCCC2)c1,3800,0.7,2.2,9.4,1.7,2.1,.
COc1ccc(CCNC(=O)CSc2ccc(-c3ccccc3)nn2)cc1,.,2.8,4.4,-0.3,-3.0,.,-8.2
COc1cccc(C2=NOC(C(=O)Nc3ccccc3SC)C2)c1 (centres undefined),3526,3.9,5.3,1.8,11.6,-11.9,-0.9
CC(=O)NNC(=S)NC(=O)c1ccc(C)cc1,4428,5.8,3.3,3.7,6.7,-14.7,-5.7
CCN(CC)S(=O)(=O)c1cc(C)c(C)cc1OCC(=O)NC1CCCC1,5869,2.7,5.9,-1.0,-3.6,-8.1,-7.6
COC(=O)c1ccc(CNC(=O)CNc2cc(C(F)(F)F)ccc2N2CCOCC2)cc1,3426,0.4,0.2,7.2,-2.9,-0.9,-7.4
O=C(CC1CCCC1)N1CCCC(Nc2cccc(F)c2)C1 (centres undefined),6069,.,.,.,.,-12.3,-12.0
O=C(c1ccc([N+](=O)[O-])cc1)N(Cc1ccccc1)c1ccccn1,4471,6.5,4.6,4.1,2.8,-20.1,0.8
S=C(Nc1ccc(Cl)cc1Cl)N1CCOCC1,1918,3.5,-2.2,5.3,4.8,0.2,-11.8
FC(F)(F)c1cnc(N2CCCN(C(=S)Nc3ccccc3)CC2)c(Cl)c1,3768,-1.1,1.1,12.9,-14.5,-14.5,4.6
CC(=O)Nc1ccc(N/C(N)=N/c2nc(C)cc(C)n2)cc1,3710,5.8,1.6,-6.9,12.5,-6.9,9.3
Cn1c2c(c(=O)c3ccccc31)CCC(C)(C)O2,8858,4.5,14.3,9.6,14.5,-16.0,-4.5
c1ccc(CN2CCC3(CC2)Nc2ccccc2CO3)cc1,8104,3.9,-2.6,-8.1,3.6,-6.2,-6.2
COc1ccc(N2CCN(C(=O)CSc3nnc(-c4ccc5[nH]c(C)c(C)c5c4)o3)CC2)cc1,9788,4.6,11.5,-0.8,-20.4,-19.2,-10.5
O=C(NCc1ccc2c(c1)OCO2)C(=O)NCC1OCCN1S(=O)(=O)c1ccc(Cl)cc1 (centres undefined),4824,3.7,8.6,5.9,7.2,0.3,-4.6
CCN(CC)CCNC(=O)C1CCN(S(=O)(=O)c2c(C)noc2/C=C/c2ccccc2F)CC1,.,0.5,-3.7,2.4,5.8,-14.3,7.6
CC1=CC(C)(C)N=C(Nc2ccc(C)cc2)S1,6924,-0.5,-51.3,-2.9,45.0,-44.1,-2.5
Cc1ccc2nc(NC(=O)CC3Oc4ccccc4NC3=O)sc2c1 (centres undefined),4381,3.1,6.9,14.0,11.2,-21.0,-13.7
CCc1cc(=O)oc2cc(OCC(=O)O)c(Cl)cc12,4070,1.2,7.5,5.5,0.6,-10.4,-2.2
CC(C)n1cc(CN2CCC(Oc3ccc(C(=O)N4CCCCC4)cc3)CC2)cn1,6174,1.6,19.0,6.8,2.4,2.5,-7.2
CCN(CC(=O)Nc1cc(Cl)ccc1C)C(=O)CSCc1ccccc1,?,1.4,2.6,10.8,-5.0,-19.4,.
# (list continues)
SMILES,Autofluor counter,RN4220 kill,Mtb hypoxia inh,Mtb hypoxia inh growth,ugtP null kill,PrP 5UTR inh,BJeLR viability
Cc1ccccc1-c1csc(N)n1,4025,3.0,7.7,-0.8,5.7,-51.5,.
CC12CCC(=O)CC1CCC1C2C(=O)CC2(C)C1CCC2(C)O (centres undefined),3977,11.2,13.0,8.4,2.7,-9.9,.
CC1CCN(c2ccc3nnc(CCC(=O)N4CCN(c5ccc(F)cc5)CC4)n3n2)CC1,6131,4.9,14.3,-0.8,3.9,-18.8,2.8
COc1cccc(CNC(=O)C2CCN(S(=O)(=O)c3cnc[nH]3)CC2)c1,4781,2.1,.,.,1.3,10.7,5.0
CSc1ncccc1C(=O)NCc1ccc(C)cc1,2466,4.8,3.2,9.4,2.2,-2.9,-5.4
O=C(c1ccccc1Cl)N1CCN(C(=O)C2CCCO2)CC1 (centres undefined),.,3.0,4.9,-2.5,7.1,-33.6,.
COC(=O)c1ccccc1NC(=O)c1cc(C)no1,4202,3.3,5.2,-0.6,5.3,-52.9,3.6
CCCNC(=O)COC(=O)c1ccccc1OCC(=O)Nc1ccc(Br)cc1,7139,.,.,.,.,-10.0,9.9
Cc1cc(C)cc(NC(=O)CC23CC4CC(C2)CC(n2nnc(C)n2)(C4)C3)c1,11293,.,.,.,.,-16.8,-2.1

# Outcome played no part in choosing rows. About 4% of those tested had a hit in this group.
